eIF4H inh = human eIF4H binding inhibitors, primary screen, translation initiation inhibitor project, biochemical, uHTS, fluorescence polarization; Eukaryotic translation initiation factor 4H (Homo sapiens), Q15056; eIF4H fluorescence polarization binding assay; inhibition, % at 35 µM; hit rate 0.94% among 290,000; AID 2012, 2009;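 active means 50% or more with normal probe brightness, or confirmed in later tests; inconclusive means above 50% with abnormal brightness, or retests that disagree; inactive means below 50% or failed in later tests; about a fifth of its hits are not listed in these tables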;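 further: calls also rest on retests at 20 µM and on dose response follow-up; 0% = protein and probe with vehicle and 100% = probe without protein; strong numbers were not always called active; many hits fall short of the cut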
UUG fidelity = modulators of yeast start codon fidelity, primary screen, whole organism, S. cerevisiae, single point, plate reader | S. cerevisiae UUG-firefly luciferase reporter, luminescence/redox ratio | activity score, % at 18.7 µM | hit rate 0.13% among 350,000;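 active means replicate mean at a twofold rise or more, about +100% in these data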;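 further: firefly luciferase made from a UUG start codon reports start codon fidelity; reporter light over untreated wells divided by growth signal over untreated wells; some hits fall short of that in this replicate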
Env fusion inh = inhibitors of HIV-1 Env-driven cell-cell fusion, primary screen, HeLa-JRFL effector, CEM21 target cells, luciferase; inhibition, % at 12.3 µM; hit rate 1.1% among 360,000; AID 651610, 2012;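 active means mean replicate inhibition score of at least 50 and every replicate individually at or above 50; inconclusive means only one of the two criteria met; inactive means mean below 50 and not all replicates reaching 50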;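 further: 0% = plate neutral controls and 100% = maraviroc near 300 nM; one replicate is shown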
Rce1 inh = yeast Rce1p protease inhibitors, primary screen, biochemical, fluorescence, cell-free homogeneous; AID 2563, 2010; hit rate 0.27% among 290,000; yeast membranes, quenched prenylated peptide cleavage fluorescence; calls only; CAAX prenyl protease 2 (Saccharomyces cerevisiae (strain ATCC 204508 / S288c)), Q03530;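 active means fall in fluorescence gain of 50% or more versus controls, with final raw signal at or below 3038400; inconclusive means same 50% fall but final raw signal above 3038400; inactive means fall in fluorescence gain under 50%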;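 further: plate controls were neutral control wells for no effect and wells lacking membranes for full effect; tested at 10 µM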
Target sequence (Q03530 whole entry, looked up): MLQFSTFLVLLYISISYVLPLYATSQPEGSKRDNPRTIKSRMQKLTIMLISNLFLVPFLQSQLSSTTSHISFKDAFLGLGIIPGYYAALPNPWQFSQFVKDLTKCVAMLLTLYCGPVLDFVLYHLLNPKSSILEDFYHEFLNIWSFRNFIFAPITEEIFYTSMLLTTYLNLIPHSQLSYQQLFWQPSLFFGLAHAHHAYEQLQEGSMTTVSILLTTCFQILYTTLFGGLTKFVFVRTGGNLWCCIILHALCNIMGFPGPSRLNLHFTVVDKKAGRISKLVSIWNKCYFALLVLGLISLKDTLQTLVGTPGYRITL
MT1-MMP act inh = blockers of MT1-MMP proenzyme processing, primary screen, HT1080 RFP-PRO-GFP cells, GFP/RFP fluorescence | hit rate 0.061% among 360,000 | GFP/RFP ratio fluorescence, overnight; percent of plate control window, DMSO zero | AID 651647, 2012 | GFP/RFP ratio change, % at 20 µM | Matrix metalloproteinase-14 (Homo sapiens), P50281;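 active means GFP/RFP ratio change of at least 30% with cell ATP level not reduced by more than half and red fluorescence within 50% of control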; further: strong numbers were not always called active
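Assay system: HT1080 RFP-PRO-GFP cells | Dosing: 20 µM single dose, 1% DMSO | Incubation: Cells overnight before dosing, compound overnight, 37 °C, 5% CO2 | Evaluation: GFP/RFP fluorescence ratio | Control set: DMSO-only wells and HT1080 RFP-L50D-GFP cell wells as references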
CSC inhib = cancer stem cell viability inhibitors, primary screen, luminescence; hit rate 1.1% among 300,000; cancer stem cell-like cells viability; AID 2717, 2010; inhibition, % at 7.5 µM;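 active means mean at 75% or more and at least half the replicates too; inconclusive means mean and replicates disagree; tested in HMLE shEcad cells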;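 further: 0% = median of negative and 100% = median of positive control wells; the first replicate is given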
PABP FP inh = PABP poly(A) RNA binding inhibitors, primary screen, biochemical, fluorescence polarization, uHTS | Polyadenylate-binding protein 1 (Homo sapiens), P11940 | AID 2014, 2009 | hit rate 1% among 290,000 | inhibition, % at 35 µM;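 active means 50% or more with normal probe brightness, or confirmed in later tests; inconclusive means above 50% with abnormal brightness, or retests that disagree; inactive means below 50% or failed in later tests; about a fifth of its hits are not listed in these tables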;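 further: calls also rest on retests at 20 µM and on dose response follow-up; controls were probe without protein and protein plus probe with vehicle; some compounds called inactive have numbers as strong as hits; many hits fall short of the cut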
eIF4H inh retest = further read-out of eIF4H inh, marked with its call; inhibition, %; compound at 20 µM; confirmation average;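 mean of two retest wells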
PABP FP inh retest = second read-out of PABP FP inh, no call of its own (marks repeat the call); inhibition, %; compound at 20 µM; confirmation repeats;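 mean of two retest wells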
MT1-MMP act inh RFP = further read-out of MT1-MMP act inh, marked with its call; RFP signal change, %; measured here: RFP expression control read;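 0 = vehicle wells; hits needed this value within 50% of zero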
Active calls of the source: *; i = inactive; ? = inconclusive; . = not tested or not shown.

SMILES	eIF4H inh	UUG fidelity	Env fusion inh	Rce1 inh	MT1-MMP act inh	MT1-MMP act inh RFP	CSC inhib	PABP FP inh	others
Cc1ccccc1C(=O)N(C)[C@H]1C[C@H]2c3[nH]c4ccccc4c3CCN2C(=O)[C@H]1[C@H](C)O	.	4	i	.	2	6	.	.
CCc1ccc(NC(=O)CCc2nc3sc4c(c3c(=O)[nH]2)CCCC4)cc1	.	.	-7	i	-7	1	8	.
CCOC(=O)c1ccc(N2C(=O)c3n[nH]c(C)c3C2c2ccc(OC)c(OC)c2)cc1 (centres undefined)	-8	-8	-24	i	1	0	-3	-6
CCCCc1ccc(NC(=S)NCc2ccc(OC)cc2)cc1	-8	-8	-3	i	-3	-1	.	-1
COc1ccc(COCC(O)CN2CCC(C(N)=O)CC2)cc1OC (centres undefined)	11	.	40	i	-2	0	5	4
Cc1cc(=O)oc2cc(OCC(=O)N3c4ccccc4CC3C)ccc12 (centres undefined)	-10	-15	.	i	-7	-18	.	3
Cc1ccc(CN2C(=O)CCSc3ccc(Cl)cc32)cc1	3	-32	.	i	-4	-2	22	0
O=C(COC(=O)C12CC3CC(CC(C3)C1)C2)Nc1nc2c(F)c(F)c(F)cc2s1	-1	-6	-27	i	-3	-3	.	-8
COc1cccc(C2=NC(C)(C)NC(c3ccccc3O)C2)c1 (centres undefined)	5	.	.	i	-3	1	17	-3
CCC1CCCCN1C(=O)CSc1nnc(CNC(=O)c2c(F)cccc2Cl)o1 (centres undefined)	-7	-9	2	i	-2	2	6	6
CCc1ccc(CN(C)C(=O)c2cc(COc3cncc(Cl)c3)on2)cc1	.	-15	9	.	0	-9	.	.
C/C(CC(=O)NCCCN1CCOCC1)=N\NC(=O)COc1cccc2ccccc12	-5	-10	5	i	3	8	-6	-18
CCOc1ccc(NC(=O)c2cn(-c3ccc(OCC)cc3)c(=O)c3cc(OC)c(OC)cc23)cc1	0	.	2	i	-1	-5	8	5
O=C(O)c1cccc(Nc2nc3ccccc3nc2NS(=O)(=O)c2ccccc2)c1	.	-3	-19	.	-1	3	-11	.
O=C(CSc1nnc(Nc2ccccc2)s1)Nc1ccc(S(=O)(=O)N2CCOCC2)cc1	2	4	.	i	1	-12	-7	-14
CC1(C)CC(=O)C2=C(C1)N(c1ccc(F)cc1)C(=O)C2(NC(=O)c1ccccc1F)C(F)(F)F (centres undefined)	11	.	7	i	7	6	5	9
Nc1ccc(Cl)c(S(=O)(=O)Nc2ccc(Cl)cc2)c1	-6	.	3	i	-1	-4	-5	0
NC(=O)C1CC(=O)N(c2ccc(OCC(=O)Nc3cccc(C(F)(F)F)c3)cc2)C1 (centres undefined)	-3	-10	.	i	-1	-2	-10	2
Cc1ccc(NC(=O)c2ccco2)c(NC(=O)c2ccc(Cl)cc2)c1	7	-1	-3	i	1	0	5	1
COc1ccccc1CNC(=O)c1nccnc1CO	-11	0	12	i	-3	2	2	1
CCOC(=O)/C(=N\Nc1ccccc1Cl)N1CCN(C)CC1	-14	-18	7	i	7	9	.	7
Cc1cc(C(=O)OCC(=O)N2CC(=O)Nc3ccccc32)no1	7	-8	-85	i	-1	3	-7	7
Cc1ccccc1C(=O)N1CCC(C(=O)Nc2ccccc2N2CCCC2)CC1	.	-21	.	i	3	1	-6	.
O=c1[nH]c(CSc2nnc3ccccn23)nc2cc(C(F)(F)F)ccc12	6	.	-10	i	.	.	-3	2
COc1ccc(NC(=O)CCc2nc(-c3ccc(C)cc3)no2)c(OC)c1	82	-8	.	i	1	-3	14	0	eIF4H inh retest=0;PABP FP inh retest=3
COC(=O)c1ccccc1NC(=O)CSc1nncn1-c1ccccn1	0	-2	10	i	0	4	-5	2
O=C(CSc1nnc(-c2ccccc2F)n1C1CC1)Nc1ccc2[nH]c(=O)[nH]c2c1	7	.	0	i	-7	3	-17	-3
CC(C)NC(=O)COc1coc(CN2CCN(c3cccc(Cl)c3)CC2)cc1=O	-17	.	-2	i	2	-2	-14	6
COC(=O)Cn1ccc(-c2ccc(Cl)cc2)c(C#N)c1=O	1	.	-3	i	-10	-1	-8	-8
Cc1cc(NC(=O)C2CC2)ccc1NC(=O)c1cccs1	-8	.	1	i	-2	-1	2	-12
O=C1CCC(/C=C/c2ccccc2)=NN1Cc1ccccc1	2	.	-6	i	9	2	-2	8
Cc1cc(C)c(C(=O)OCCNC(=O)c2cccnc2)cc1C	-16	-7	23	i	-2	-4	4	6
CCCCN1C[C@H](Cc2ccccc2)[C@@H](CC(=O)Nc2ccccc2)C1=O	-6	5	-11	i	-8	-7	3	6
COCCCN1C(=O)C(CC(=O)NC2CC2)CC(C(=O)N2CCOCC2)=C1C (centres undefined)	.	-4	-3	.	1	-2	.	.
N=c1c(C(=O)NCCc2ccccc2)cc2c(=O)n3ccccc3nc2n1CC1CCCO1 (centres undefined)	-1	3	-5	?	2	2	2	-6
CN(C)c1ccc(NC(=O)CSCc2nc3c(nnn3Cc3ccc(F)cc3)c(=O)[nH]2)cc1	86	8	.	i	-6	0	.	67	eIF4H inh retest=7;PABP FP inh retest=13
COc1ccc(N(C)S(=O)(=O)c2cccc(C(=O)NC3CCCC3)c2)cc1	-4	-15	15	i	-26	-19	-11	0
O=C(CSc1ncnc2nc[nH]c12)N1CCOCC1	3	-17	.	i	4	2	-1	6
CCCCOC(=O)C1=C(C)Nc2ncnn2C1c1ccc(OC)c(OC)c1 (centres undefined)	-9	-7	i	i	1	1	-2	-4
Oc1ccc2c(c1)oc1cc(O)ccc12	2	-10	-114	i	0	-8	68	-13
C/C(=C\C(=O)c1ccc(Br)cc1)NNC(=O)c1ccc(O)cc1	-2	-6	3	i	2	0	-7	-14
Cc1ccc(C(=O)N2CCC(C(=O)c3c(C)cc(C)cc3C)CC2)cc1	-10	24	28	i	-16	-14	-14	-3
O=C(CC1Sc2ccccc2NC1=O)NCc1ccccc1 (centres undefined)	12	-9	3	i	2	0	-17	17
Clc1ccc(SCCCCn2cncn2)cc1	0	-29	.	i	0	0	-4	7
CC(=O)N(Cc1cc2cc(C)c(C)cc2n2nnnc12)CC1COCCO1 (centres undefined)	-6	.	.	.	4	1	-8	-3
FC(F)(F)c1cccc(N2CCN(CC3CC4C=CC3C4)CC2)c1 (centres undefined)	-4	1	.	i	2	-1	-11	17
CCC(C)c1ccc(S(=O)(=O)Nc2cccnc2)cc1 (centres undefined)	-1	.	-4	i	-3	-11	-3	-4
COc1ccc(NC(=O)CN2CCN(c3nc(-c4ccc(F)cc4)cs3)CC2)c(OC)c1	-19	.	-3	i	-1	2	14	-3
O=C(O)c1ccc(/C=C/C(=O)c2ccc3c(c2)OCCCO3)cc1	-3	-4	-5	i	-1	0	29	5
COc1ccccc1NC(=O)CSc1nnc(C)o1	-1	-2	-27	i	-1	1	-7	-4
Continuation.
SMILES	eIF4H inh	UUG fidelity	Env fusion inh	Rce1 inh	MT1-MMP act inh	MT1-MMP act inh RFP	CSC inhib	PABP FP inh	others
COc1ccc(NC(=O)c2ccccc2N2C(=O)C3C4C=CC(C5CC45)C3C2=O)c(OC)c1 (centres undefined)	7	-7	38	i	2	0	-16	-1
Cc1ccc(NC(=O)c2cccc(S(=O)(=O)N(C)c3ccccc3)c2)cc1S(=O)(=O)N1CCOCC1	5	.	.	i	-6	-20	2	8
CN(CC(=O)Nc1ccccc1Br)C(=O)CNC(=O)c1ccc2c(c1)OCO2	.	1	-15	i	3	3	-10	.
Cc1ccc(C(=O)Nc2ccccc2C(=O)N2CCCCC2C)cc1 (centres undefined)	-4	-5	4	i	-3	-1	2	5
NS(=O)(=O)c1ccc(Sc2ccc3ccccc3c2)nc1	3	-13	9	i	2	-1	12	8
O=C(NC[C@@H]1CCCO1)c1cccc2c1C(=O)c1ccc(N3CCOCC3)cc1S2(=O)=O	.	-3	-11	.	-6	2	.	.
CC(Oc1ccccc1)C(=O)Nc1nnc(S(=O)(=O)N(C)c2ccccc2)s1 (centres undefined)	.	-15	1	i	2	-1	13	.
CCCCOc1ccc(S(=O)(=O)NC(=O)C2(C)CCN2C(=O)c2cccc(F)c2)cc1 (centres undefined)	.	-6	-1	.	2	4	.	.
COc1ccc(-c2csc(N(CCCN(C)C)C(=O)c3ccccc3C)n2)cc1	-4	-9	2	i	-11	-6	-2	-3
Cc1cc(NC(=O)C2CCCN(S(=O)(=O)c3c(C)noc3C)C2)n[nH]1 (centres undefined)	-4	-7	-8	i	2	4	-7	9
Clc1ccc2c(c1)[C@H]1OCC[C@H]1[C@@H](c1ccco1)N2	-3	-23	-28	i	-6	1	-1	0
COc1cc(-c2cc(C(=O)O)c3cc4c(cc3n2)OCCO4)cc(OC)c1OC	5	-4	.	.	9	-1	8	13
O=C(Nc1cccc(C(F)(F)F)c1)C1C2CC3OC(=O)C1C3C2 (centres undefined)	-5	-33	.	i	0	-1	-3	0
CCn1cc(SCC(=O)N2CCOCC2)c2ccccc21	-4	3	-75	i	.	.	0	8
CN(C)c1ncnc2c1ncn2C1CCCO1 (centres undefined)	.	-26	-189	.	0	-6	.	.
CCC(=O)NNC(=O)Cc1c(C)n(C(=O)c2ccc(Cl)cc2)c2ccc(OC)cc12	-14	-13	-10	i	2	-2	-3	-6
COc1ccccc1NC(=O)c1cc(Br)ccc1Cl	4	.	13	i	-2	0	12	6
COc1ccccc1C(=O)NCc1ccco1	2	-14	6	i	4	4	-11	-5
CCCCN(CCCC)Cc1ccc(C(=O)NNC(=O)Nc2ccc(F)cc2)o1	-1	.	4	i	1	6	-1	-2
CC(=O)c1cc(C#N)c(SCc2ccccc2)nc1C	-6	.	.	i	5	-2	2	-6
COc1cccc(CNC(=O)c2cc(COc3c(F)cccc3F)on2)c1	3	-7	-23	i	3	0	11	-9
N#Cc1nc(Cc2ccccc2)oc1N1CCCC1	0	.	-3	i	3	-1	.	-2
COc1ccc(CNS(=O)(=O)c2ccc(-n3cnnn3)c(OC)c2)cc1	2	3	-7	i	0	0	0	5
O=C(CN1CCN(S(=O)(=O)N2CCCCCC2)CC1)Nc1cc(Cl)ccc1Cl	3	-5	30	i	2	-1	12	-5
COc1cccc(CN2CCN(C(=O)c3cccc4ccccc34)CC2)c1OC	7	-7	.	i	-2	1	-11	12
CS(=O)(=O)NN1C(=O)c2ccccc2NC1c1ccccc1O (centres undefined)	-4	-5	-4	i	2	2	-6	-12

As a short view, 3 of the compounds above:
SMILES	eIF4H inh	UUG fidelity	Env fusion inh	Rce1 inh	MT1-MMP act inh	MT1-MMP act inh RFP	CSC inhib	PABP FP inh	others
Cc1ccccc1C(=O)N(C)[C@H]1C[C@H]2c3[nH]c4ccccc4c3CCN2C(=O)[C@H]1[C@H](C)O	.	4	i	.	2	6	.	.
CCc1ccc(NC(=O)CCc2nc3sc4c(c3c(=O)[nH]2)CCCC4)cc1	.	.	-7	i	-7	1	8	.
CCOC(=O)c1ccc(N2C(=O)c3n[nH]c(C)c3C2c2ccc(OC)c(OC)c2)cc1 (centres undefined)	-8	-8	-24	i	1	0	-3	-6

Assay outcomes: PubChem, several laboratories
